# BJeLR lethal = MLPCN primary cell-based screen for lethality selective to Ras in HRASV12 cells; 0.17% of 300,000 active; inhibition, % (test concentration not listed); BJeLR (HRASV12) viability, CellTiter-Glo ATP luminescence, 48 h; reference of the scale not given here; AID 1554, 2009;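 active means replicate mean above 50%; inconclusive means above 50% but judged a plate artefact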;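 further: 50 nL library stock added to about 25 µL; numbers are from one replicate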
# Bead autofluor = counter-screen for toxin protease inhibitors: compound fluorescence; compound autofluorescence counterscreen, microsphere flow cytometry; stronger effect = higher value; fluorescence intensity (concentration not given with the values); 3.1% of 360,000 active; AID 624483;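 active means at least 3 SD above the mean of all compounds, about 16000 in these data; inconclusive means too few beads counted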;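 further: 100 nL of 1 mM stock went into each well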
# Sa RN4220 lethal = growth inhibition of S. aureus RN4220, primary screen, OD600; 16 h; inhibition, % (no concentration beside the values); 0.33% of 330,000 active; AID 1259311, 2017;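 active means z-score of -3 or lower and OD600 up to 0.18 on both plates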;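 further: plate controls were untreated cells for no effect and reference antibiotic for full effect; stock transfer was 100 nL into about 80 µL; one replicate is shown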
# PrP UTR inh = inhibition of PrP 5' UTR reporter expression; 0.35% of 340,000 active; AID 488862, 2010; cell-based PrP 5' UTR mRNA reporter, plate reader; inhibition, % (test concentration not listed);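 active means every replicate at 50% or more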;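 further: 0 = median of the neutral control wells; tested in H4 reporter cells; numbers are from one replicate; inactives centre near -14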
# Mtb hypoxia rep = PubChem AID 1159583; M. tuberculosis hypoxia-regulated fluorescent reporter, fluorescence; fluorescence inhibition, % (concentration not given with the values); 0.1% of 300,000 active;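 active means 35 to 45% if threefold the growth effect, above 45% if 1.5-fold the growth effect; inactive means the rest, general growth blockers included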;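 further: wells of about 50 µL received 100 nL stock; 0% = vehicle wells and 100% = reference inhibitor wells; whole bacteria with a GFP reporter of the hypoxia response; strong numbers were not always called active; many hits fall short of the cut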
# ugtP null kill = growth inhibition of ugtP-null S. aureus, primary screen, RN4220 ugtP deletion, OD600. 16 h; some inactives read as strong as hits. growth inhibition, % (no concentration beside the values). 0.54% of 330,000 active;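 active means z-score under -3 and OD600 up to 0.15 on both plates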;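 further: plate controls were untreated wells for no effect and antibiotic for full effect; wells of about 80 µL received 100 nL stock; the first replicate is given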
# Mtb hypoxia rep growth = second read-out of Mtb hypoxia rep, no call of its own (marks repeat the call); growth inhibition, %; measured here: M. tuberculosis growth (absorbance);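 0% = vehicle and 100% = reference antibiotic; read after six days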
# * hit, by the source's call; ? = inconclusive; nt = not tested or not shown.
SMILES,BJeLR lethal,Bead autofluor,Sa RN4220 lethal,PrP UTR inh,Mtb hypoxia rep,Mtb hypoxia rep growth,ugtP null kill
COc1ccc2cc(C(c3nnnn3Cc3ccccc3)N3CCCCCC3)c(=O)[nH]c2c1 (configuration not stated),-3,18165*,0.9,-22,0,13,5
Cc1ccn2cc(-c3nonc3C)cc2c1,18,12476,5.5,-63,-6,5,-4
O=C(CSc1nn(-c2ccccc2)c(=S)s1)NC1CCS(=O)(=O)C1 (configuration not stated),-4,1858,1.5,-21,-1,0,5
CCN1CCN(c2ccc(S(=O)(=O)N3CCCCC3)cc2NC(=O)c2ccc(C)c(C)c2)CC1,nt,?,4.9,nt,12,4,6
Cc1cc(C)c2c(N)c(C(=O)c3ccccc3)oc2n1,-9,10729,2.6,-19,-5,8,-8
Cc1ccc(OCC(=O)NNC(=O)CSc2ncc(C#N)c(N)n2)cc1,4,2536,4.4,-30,5,-2,15
CCc1noc(C)c1C(=O)N1CCN(c2cccc(C)c2C)CC1,-8,5564,5.4,-108,5,-3,0
C#CCOCCOCCOCCNc1nc(N2CCN(C(=O)Cn3cc(CCCN=C(N)N)nn3)CC2)nc(N2CCN(C(=O)C(C(C)C)n3cc(CCO)nn3)CC2)n1 (configuration not stated),nt,nt,1.3,nt,7,4,-6
CCC/C(O)=C1\C(=O)CC(c2ccccc2)CC1=NC (configuration not stated),-3,8669,1.9,-10,6,14,4
O=C(NC(=S)Nc1ccccc1[N+](=O)[O-])c1ccco1,9,4998,2.3,-29,2,16,-11
O=C(Cc1nnc(NC(=O)c2ccccc2)s1)N/N=C/c1ccco1,-9,2586,nt,-3,nt,nt,nt
Cc1cc(NC(=O)CCc2ccc(-c3ccccc3)o2)no1,-18,4475,1.4,-13,10,-7,5
CC1=C(C(=O)NC2CCC(C)CC2)C2(CCC(C)CC2)OC1=O (configuration not stated),-3,6621,-9.6,11,10,8,-1
CCCCN(C(=O)CSc1nnc(Nc2ccc(C)c(C)c2)s1)c1c(N)n(Cc2ccccc2)c(=O)[nH]c1=O,0,2641,-7.7,-21,nt,nt,-13
O=C(NCCCN1CCCC1)c1cccc(N2CCCC2=O)c1,-3,3257,9.9,3,10,12,13

# Reprinted from the part before: six entries, followed by the next part.
SMILES,BJeLR lethal,Bead autofluor,Sa RN4220 lethal,PrP UTR inh,Mtb hypoxia rep,Mtb hypoxia rep growth,ugtP null kill
O=C(NC(=S)Nc1ccccc1[N+](=O)[O-])c1ccco1,9,4998,2.3,-29,2,16,-11
O=C(Cc1nnc(NC(=O)c2ccccc2)s1)N/N=C/c1ccco1,-9,2586,nt,-3,nt,nt,nt
Cc1cc(NC(=O)CCc2ccc(-c3ccccc3)o2)no1,-18,4475,1.4,-13,10,-7,5
CC1=C(C(=O)NC2CCC(C)CC2)C2(CCC(C)CC2)OC1=O (configuration not stated),-3,6621,-9.6,11,10,8,-1
CCCCN(C(=O)CSc1nnc(Nc2ccc(C)c(C)c2)s1)c1c(N)n(Cc2ccccc2)c(=O)[nH]c1=O,0,2641,-7.7,-21,nt,nt,-13
O=C(NCCCN1CCCC1)c1cccc(N2CCCC2=O)c1,-3,3257,9.9,3,10,12,13
CCN(C(=O)c1cnc(NC(C)C)cc1C(F)(F)F)c1ccc(Cl)cc1Cl,-18,5485,0.9,-10,-4,0,28
COc1ccc(C)cc1NC(=O)CN1CCN(S(=O)(=O)c2ccc(Cl)cc2)CC1,-19,2388,0.4,-22,nt,nt,-4
Brc1ccc(CNCC2CCCO2)cc1 (configuration not stated),-2,3733,4.1,-22,3,5,8
O=C(Nc1ccc(S(=O)(=O)N2CCOCC2)cc1)c1ccc([N+](=O)[O-])o1,1,3248,24,-26,nt,nt,31
Cc1c(NC(=O)C(C)n2cc([N+](=O)[O-])cn2)c(=O)n(-c2ccccc2)n1C (configuration not stated),1,3754,-2.1,-7,6,-3,1
Cc1ccc(C(=O)NCCN2CCOCC2)cc1Cl,-6,9023,2.6,-21,7,5,1
Cc1cccc(OP(=O)(NCc2ccccc2)Oc2cccc(C)c2)c1,-4,8815,-3.0,-18,13,7,-16
CC(=O)N1c2ccc(Cl)cc2C2C=CCC2C1c1cccc2ccccc12 (configuration not stated),nt,2519,0.5,-19,8,4,1
O=C(COc1cccnc1[N+](=O)[O-])Nc1ccc(S(=O)(=O)N2CCOCC2)cc1,-6,4179,3.3,-49,3,8,5
COC(=O)C(C(=O)OC)=C(/C=C/C=C/N(C)C)N(C)C,0,11218,2.0,0,5,9,-1
CCC1(c2ccc(Cl)cc2)NC(=S)N(c2ccc(C)c(C)c2)N1 (configuration not stated),-2,nt,4.4,-11,7,4,1
CCCCn1c(SCC(=O)Nc2nnc(CC)s2)nc2c1c(=O)n(C)c(=O)n2C,30,21466*,6.0,-19,7,6,3
CSc1sc(C)cc1C1C(C#N)=C(N)N(c2cccnc2)C2=C1C(=O)CC(C)(C)C2 (configuration not stated),-1,4661,2.6,2,nt,nt,-2
COc1ccc(C(CNC(=O)CN2C(=O)NC(C)(c3ccc4ccccc4c3)C2=O)N2CCCC2)cc1 (configuration not stated),nt,4455,0.8,8,0,9,0
CS(=O)(=O)N(CC(=O)NCCSC1CCCCC1)c1cccc(F)c1,-28,2211,4.0,-8,-3,-2,10
Cc1nn(C)c(C)c1NC(=O)CCSc1nc(-c2ccco2)cc(C(F)(F)F)n1,5,3559,4.3,-17,6,3,3
Nc1ncnc2c1ncn2[C@@H]1O[C@H](CNCc2ccccc2OCC(=O)N2CCCCC2)[C@@H](O)[C@H]1O,nt,3412,3.1,-8,-12,8,1
COc1ccc(/C=N/NC(N)=S)cc1OC(=O)c1cccc2ccccc12,7,7952,nt,-19,nt,nt,nt
CCN1C(=O)NC(c2cccs2)C(C(C)=O)=C1C (configuration not stated),nt,nt,3.1,nt,4,4,-2
CC1=CC=CN2C1=NC(=O)CC2(C)C(=O)N(CC(=O)NC1CCCC1)c1cc(C)cc(C)c1 (configuration not stated),9,4029,2.3,-32,1,0,-1
CCCc1cc(=O)[nH]c(SCC(=O)CSc2nc(CCC)cc(=O)[nH]2)n1,-4,3272,-2.4,-16,-7,5,1
COc1ccccc1-n1c(CNC(=O)c2cccs2)n[nH]c1=S,0,3601,0.1,-21,-6,-4,1
CCN1CCN(c2ccc(N3CCN(C(=O)c4ccc(Br)o4)CC3)nn2)CC1,6,6736,-0.8,-34,1,2,4
CC(=O)Nc1ccc(SCC(=O)N(CCC#N)c2cc(C)cc(C)c2)cc1,1,6346,-1.7,-14,6,4,2
C=CCNc1nnc(-c2ccncc2)s1,1,2384,4.3,-2,nt,nt,6
CCN(CC)CCn1c2c(c(SCC(=O)Nc3ccccc3Cl)nc1=O)CCC2,-6,?,1.0,-29,-3,-3,10
CCOC(=O)C(=Cc1ccc2c(c1)OCO2)c1ccccc1,nt,2797,8.2,-10,0,-2,33
CCc1ccc(OCC(=O)NC(NC(=S)Nc2ccccc2C)C(Cl)(Cl)Cl)cc1 (configuration not stated),7,2198,-5.8,-12,9,-1,-30
CCCC(C(=O)NC1CCCC1)N(C(=O)Cn1nnc(-c2ccc(C)o2)n1)C1CCCC1 (configuration not stated),0,25114*,0.1,-6,-3,4,2
O=C(Nc1ccccc1)Nc1nc(-c2ccc(Cl)cc2)cs1,0,11166,2.6,-9,-1,2,15
CCCCNCCOCCOc1ccccc1-c1ccccc1,20,2124,3.0,-14,24,8,5
C=CCNC(=S)NNC(=O)c1ccc(=O)n(Cc2ccc(Cl)cc2Cl)c1,1,2216,16,-40,13,0,-2
CC(NC(=O)c1ccccc1F)c1nnc(SCC(=O)N2CCN(c3ccccc3)CC2)n1C (configuration not stated),-9,4401,11,-9,-8,-10,6
COc1ccc(NC(=O)COc2ccc3c(C)cc(=O)oc3c2)cc1S(=O)(=O)N1CCCCC1,-2,6011,5.8,-3,7,0,5
CCN(c1cccc(C)c1)S(=O)(=O)c1cccc(C(=O)O)c1,-3,23200*,15,-30,17,5,6
CC1CCCCC1NC(=O)COC(=O)c1ccc2c(c1Cl)C(=O)c1ccccc1C2=O (configuration not stated),-20,2481,18,-24,-4,5,-6
COc1ccc(OC)c(NC(=S)N(CCc2c(C)[nH]c3ccc(C)cc23)Cc2cccs2)c1,12,5270,1.8,1,4,4,13
O=C(c1cccc(S(=O)(=O)N2CCN(c3ccccc3)CC2)c1)N1CCCC(C(F)(F)F)C1 (configuration not stated),5,?,4.5,-11,-2,2,8
COC(=O)C1CCN(C(=O)COc2ccc(S(=O)(=O)N3CCOCC3)cc2Cl)CC1,nt,2839,-2.5,-12,3,-8,-4
COc1ccc(-n2c(=O)c3c4c(sc3n(CC(=O)NC3CCCC3)c2=O)CCCC4)c(OC)c1,9,4365,-0.7,-10,-10,-7,14
O=C(N/C(=C/C=C/c1ccccc1)C(=O)N1CCCCC1)c1ccc([N+](=O)[O-])cc1,-1,4206,7.2,-14,-3,10,-6
Cc1ccc(C(=O)NNC(=O)c2cccnc2SCc2cccc([N+](=O)[O-])c2)cc1,-25,1967,3.4,-9,4,1,6
C/C(=N\NC(=O)c1[nH]c2c([N+](=O)[O-])cc(C)cc2c1-c1ccccc1)c1cccnc1,7,2802,nt,-20,nt,nt,nt
CCOC(=O)c1c(C)nc2c(c1-c1cc(OC)ccc1OC)C(=O)CC(C)(C)C2,-6,4010,4.3,-20,-3,-5,19
Cc1ccc(NC(=O)CSCC(=O)Nc2ccccc2N2CCCC2)cc1,3,6263,1.0,0,-2,9,-5
CCc1ccc2c(c1)/C(=N/N(C)C(=S)NC)C(=O)N2,0,2439,nt,-30,nt,nt,nt
Cc1ccccc1-n1c(-c2ccc(Br)o2)n[nH]c1=S,1,6141,1.9,-39,11,14,7
CCN(CC)C(=NS(=O)(=O)c1ccccc1C)c1ccccc1,nt,nt,3.9,nt,7,7,1
CC(=O)Nc1ccc(NC(=O)/C=C/c2ccc(Cl)cc2)cc1,8,3293,6.1,-28,2,2,1
CC1(C)SCC(C(=O)O)NC1=O (configuration not stated),3,4498,0.5,-19,4,-2,0
COc1ccccc1N1CCN(CC(=O)Nc2cc(F)ccc2C)CC1,-6,3529,-6.6,-2,nt,nt,-1
CC(C)NC(=O)Nc1cccc2c1O[C@H](CN(C)C(=O)Nc1ccccc1)[C@@H](C)CN([C@H](C)CO)C2=O,nt,4250,-1.4,-13,8,-3,9
O=C(Cc1ccccc1)NN=Cc1ccccn1,nt,nt,6.7,nt,-7,5,9
O=C(NCc1cccc(C(F)(F)F)c1)C1CCC(=O)N(C2CCCCCC2)C1 (configuration not stated),-1,5206,3.5,-10,9,1,8
CC(NC(=O)CN1CCN(Cc2ccc(Cl)cc2)C1=O)c1ccc2c(c1)OCCO2 (configuration not stated),6,6002,-1.3,-14,7,-1,1
COC(=O)c1cccc(C(=O)N2CCCC(C(=O)c3cccc(OC(C)C)c3)C2)c1 (configuration not stated),-1,5336,0.8,-21,4,-3,10
Cc1csc(NC(=O)C2=COCCO2)n1,0,4442,3.9,-44,11,0,5
C/C(=N\Nc1nc(N2CCCCCC2)nc(N2CCCCCC2)n1)c1ccccc1,1,2155,nt,-18,nt,nt,nt
CC(Cc1ccccc1)C(=O)NCc1ccncc1 (configuration not stated),2,3973,2.7,-5,11,10,2
COc1cccc(-c2ccc3nnc(SCC(=O)Nc4ccc(NC(C)=O)cc4)n3n2)c1,0,5182,1.8,-7,7,7,-2
# (listing goes on)
SMILES,BJeLR lethal,Bead autofluor,Sa RN4220 lethal,PrP UTR inh,Mtb hypoxia rep,Mtb hypoxia rep growth,ugtP null kill
COc1ccc(OCC(=O)Nc2cc(-c3nn(C)c(=O)c4ccccc34)ccc2N2CCOCC2)cc1,3,4330,1.2,-11,-2,4,-2
O=C(CN1CCOc2ccccc21)NCc1cccs1,-3,9805,3.2,nt,3,1,5
Cn1c(=O)n(C)c2cc([N+](=O)[O-])c(N3CCN(S(=O)(=O)c4ccccc4)CC3)cc21,17,2157,5.2,-7,9,4,3
COc1ccc(-c2cc(C(=O)NNC3=NCCC3)c3c(C)nn(-c4ccccc4)c3n2)cc1,2,4231,-7.5,43,6,-3,3
Cc1cccc(N=Cc2[nH]c3ccc(Br)c(Cl)c3c2O)c1,nt,8293,35,-12,19,0,100*
Cc1c2cnn(CC(=O)Nc3cccc(C(F)(F)F)c3)c(=O)c2c(C)n1Cc1ccccc1F,13,2692,6.0,-20,-1,5,18

# Assay outcomes from PubChem.
